Screening results deposited in PubChem by National Center for Advancing Translational Sciences (NCATS).
MmCpn inh – blocks the Methanococcus maripaludis chaperonin Mm-Cpn; purified Mm-Cpn ATPase, ADP Transcreener TR-FRET; Potency, µM (highest dose often 76.9 µM), for inactives: at the highest dose activity, negative = inhibition, most hits filed as inhibitors; hit rate 0.031% among 330,000; further: potency means the concentration at half of the fitted maximal effect; on the % scale 0 is the no-effect control and ±100 the full control effect; nearly all actives have a fitted effect of over 80% in size
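Eu-cryptate anti-ADP/ADP-d2 competition gives a ratio inversely related to ADP. Enzyme at 25 nM was pre-exposed to compound for 10 min, then given 10 uM ATP for 30 min, 37°C throughout.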
ATXN viability – reduces viability in counter-screen for ATXN expression inhibitors; S2 cells (HEK-293 line with an ATXN2-luciferase reporter) viability, CellTiter-Fluor protease fluorescence, 24 h; Potency, µM (doses to about 56.7 µM), hits mostly cytotoxic; hit rate 0.49% among 400,000; AID 651635; further: potency means the concentration at half of the fitted maximal effect; nearly all actives have a fitted effect of over 40% in size
Nrf2 ARE act – Nrf2 pathway activation | AID 624171 | hit rate 0.31% among 410,000 | Potency, µM (top dose mostly 46.1 µM), for inactives: top-dose activation, usual class: activators | AREc32 ARE-luciferase reporter (MCF7-derived line), luminescence, 24 h; further: potency means the concentration at half of the fitted maximal effect; % of control where 0% means no effect; nearly all actives have a fitted effect of over 65% in size
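AREc32 cells carrying an ARE-driven firefly luciferase, 1000 cells/well in OPTI-MEM with 5% FBS, dosed after overnight attachment and incubated 24 hr at 37 deg C. Steady-Glo luminescence read after 30 min at RT.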
pAkt inh – inhibitors of Akt phosphorylation | Neuro2A IGF-stimulated pAkt S473 HTRF, 20 min; stronger effect = lower value | activity change, % for hits at 50 µM | hit rate 0.32% among 360,000; in the data active means activity change below about -80%; inconclusive means mostly about -51% to -80%; further: on the % scale 0 is the no-effect control and ±100 the full control effect
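Neuro2A cells (4,500/well, DMEM with 0.5% FBS) were treated with compound at a single 50 µM final concentration, stimulated with 6 nM IGF for 20 min at 37 °C, and lysed. Phospho-Akt Ser473 was read by HTRF as 665/615 ratio ×10^4.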
CCT modulator – cytosolic chaperonin activity modulation; purified chaperonin ATPase assay, HTRF ADP detection, 30 min; activity change, % (concentration not given with the values), hits read low; hit rate 0.3% among 360,000; AID 651819; in the data active means activity change below about -30%; further: on the % scale 0 is the no-effect control and ±100 the full control effect
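TRiC at 40 or 20 nM final (batch-dependent) in 30 mM Tris pH 7.4, 100 mM KCl, 5 mM MgCl2, 1 mM DTT, with compound at single 76 uM and 10 uM ATP, 30 min at 37 deg C. ADP detected by HTRF Transcreener, 665/615 ratio.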
The depositor's hits bear a star; i = inactive; ? = inconclusive; . = not tested or not shown; & = joins results of further samples; [ ] = dose if it differs, or a comment. Unless noted, the call rests on the fitted dose curve; in most records, active means well fitted curve in the direction sought with a large enough effect; inconclusive means small, poorly fitted or top-dose-only effect, or another doubt; inactive means no such curve, though single readings can be large; an effect the other way counts as inactive or inconclusive.

1	CC(C)OC(=O)C(C)(C)Oc1ccc(C(=O)c2ccc(Cl)cc2)cc1
2	CN1Cc2c(N)cccc2C(c2ccccc2)C1 (stereo unspecified)
3	Cc1nnc(SCC2=C(C(=O)O)N3C(=O)C(NC(=O)Cn4cnnn4)C3SC2)s1 (stereo unspecified)
4	Oc1cc2c(c(Cl)c1O)CCNCC2c1ccccc1 (stereo unspecified)
5	CCOC(=O)/C=C/c1ccc(C(F)(F)F)cc1S(=O)(=O)NC(C)(C)C
6	CCN1CC2=C(OC(N)=C(C#N)C2c2cccs2)/C(=C/c2cccs2)C1 (stereo unspecified)

Compound | 1 | 2 | 3 | 4 | 5 | 6
CCT modulator | 1.6 | -2.9&0.5 | -1.2 | 1.7 | -0.3 | -1.8
ATXN viability | i | i | i | i | ? | ?
MmCpn inh | 2.7%[15.4 µM] | 1.9% | 0.8% | . | . | 1.7%
pAkt inh | i | i | i | i | i | i
Nrf2 ARE act | 3.0% | -0.7%&0.4% | 3.2% | 1.0% | ? | 15.0%

Taken from above:
entry 4 | CCT modulator: 1.7
entry 2 | Nrf2 ARE act: -0.7%&0.4%

Some entries already given, showing only CCT modulator and Nrf2 ARE act.
item	canonical_smiles	CCT modulator	Nrf2 ARE act
3	Cc1nnc(SCC2=C(C(=O)O)N3C(=O)C(NC(=O)Cn4cnnn4)C3SC2)s1 (stereo unspecified)	-1.2	3.2%
2	CN1Cc2c(N)cccc2C(c2ccccc2)C1 (stereo unspecified)	-2.9&0.5	-0.7%&0.4%

Going on with the list:
7	O=C(O)/C=C/C(=O)O
8	CC(=O)N1CCN(C(c2ccccc2)c2ccccc2)CC1
9	C/C(O)=c1/c(=O)nc2cccc3c2=c1c1ccccc1c3=O
10	CCN(CC)CCNC(=O)c1ccc(N)cc1
11	Nc1nc2c(ncn2COCCO)c(=O)[nH]1

Compound | 7 | 8 | 9 | 10 | 11
CCT modulator | -8.6 | 2.1 | -1.9 | 2.7 | -3.8
ATXN viability | i | i | i | i | i
MmCpn inh | -1.2% | -0.5% | 1.4% | 1.3%[15.4 µM] | 1.9%[15.4 µM]
pAkt inh | i | i | i | i | i
Nrf2 ARE act | -1.6% | 0.2% | 7.2% | 0.2% | -1.2%

In another format: results already given
7: O=C(O)/C=C/C(=O)O
  CCT modulator: -8.6	ATXN viability: i	MmCpn inh: -1.2%	pAkt inh: i	Nrf2 ARE act: -1.6%

8: CC(=O)N1CCN(C(c2ccccc2)c2ccccc2)CC1
  CCT modulator: 2.1	ATXN viability: i	MmCpn inh: -0.5%	pAkt inh: i	Nrf2 ARE act: 0.2%

9: C/C(O)=c1/c(=O)nc2cccc3c2=c1c1ccccc1c3=O
  CCT modulator: -1.9	ATXN viability: i	MmCpn inh: 1.4%	pAkt inh: i	Nrf2 ARE act: 7.2%

10: CCN(CC)CCNC(=O)c1ccc(N)cc1
  CCT modulator: 2.7	ATXN viability: i	MmCpn inh: 1.3%[15.4 µM]	pAkt inh: i	Nrf2 ARE act: 0.2%

An excerpt (hit frequency here may not be typical).
